# Screening results from PubChem.
# Cruzain inh noDet: cruzain (T. cruzi) inhibition without detergent. hit rate 2.3% among 200,000. purified cruzain, Z-FR-AMC fluorescence, no detergent. Potency, µM, without a hit: max response, negative = inhibition, usual class: inhibitors. P25779. AID 1476; active means well fitted curve in the direction sought with a large enough effect; inconclusive means small, poorly fitted or top-dose-only effect, or another doubt; inactive means no such curve, though single readings can be large; an effect the other way counts as inactive or inconclusive;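 further: plate controls were enzyme without inhibitor for no effect and buffer without enzyme for full effect; nearly all actives have a fitted effect of over 40% in size; top concentration of the series not given in the record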
# Target sequence (P25779 123-467 limits assumed): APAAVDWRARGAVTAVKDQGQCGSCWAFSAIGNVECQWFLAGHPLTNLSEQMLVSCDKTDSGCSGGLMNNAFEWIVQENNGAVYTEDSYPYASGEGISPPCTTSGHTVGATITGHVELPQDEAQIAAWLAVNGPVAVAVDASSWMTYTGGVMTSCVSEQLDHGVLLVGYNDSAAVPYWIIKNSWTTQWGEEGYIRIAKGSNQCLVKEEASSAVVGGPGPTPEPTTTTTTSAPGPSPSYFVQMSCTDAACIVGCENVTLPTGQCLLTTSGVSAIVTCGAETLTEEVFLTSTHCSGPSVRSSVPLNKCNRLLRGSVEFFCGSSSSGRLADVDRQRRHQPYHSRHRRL
#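 Purified cruzain at 1.5 nM, pre-incubated 15 min with compound at room temperature in 100 mM sodium acetate pH 5.5, 5 mM DTT, 0.00005% Triton X-100. Reaction started with 2 uM Z-FR-AMC; AMC fluorescence increase over 60 s gives rate.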
# MARV entry inh: inhibitors of Marburg virus binding or cell entry. hit rate 1.8% among 300,000. Marburg virus pseudotyped entry inhibition, cell reporter; control for the full effect not named in the record; about a third of the inactives were read at about 46 µM. Potency, µM (series often up to 37.8 µM), inactives show at the top dose activity change, negative = inhibition, hits mostly inhibitors. AID 540276; active = well fitted inhibition curve with a large enough effect; inconclusive = small, poorly fitted or top-dose-only effect, or effect the other way; inactive = flat fitted curve, though single readings scatter; tested in HEK293 cells; about a fifth of its hits are not listed in these tables; further: on the % scale 0 is the no-effect control and ±100 the full control effect; luciferase read-out
# SARS PLP yeast: inhibitors of SARS-CoV papain-like protease in yeast; S. cerevisiae expressing SARS-CoV PLpro, growth rescue; control for the full effect not named in the record; Potency, µM (top dose mostly 32.9 µM), for inactives: at the top dose activity, positive = growth rescue; hit rate 0.19% among 330,000; AID 485353; further: 0% is about no effect; nearly all actives have a fitted effect of over 55% in size; growth read by luminescence after 48 h
# 2A StopGo: lowers the luciferase signal of an FMDV 2A StopGo reporter. human cells with a luciferase reporter of 2A StopGo recoding; control for the full effect not named in the record. Potency, µM (top dose mostly 57.9 µM), inactives show at the top dose signal change, negative = less light. hit rate 1.2% among 410,000; active = well fitted falling curve with a large enough effect; inconclusive = small, poorly fitted or top-dose-only effect; inactive = no such curve, though single readings can be large or run the other way; tested in HEK293T cells; further: on the % scale 0 is the no-effect control and ±100 the full control effect; nearly all actives have a fitted effect of over 45% in size; luciferase light after 4 h
# NS1 function inh: influenza NS1 inhibition. AID 2326. S. cerevisiae slowed by influenza A NS1, growth recovery by OD600. Potency, µM (series often up to 46.1 µM), for the others: top-dose activity, positive = more growth. hit rate 0.4% among 270,000; further: actives are rising curves; nearly all actives have a fitted effect of over 50% in size
#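 A cell-based growth assay was used: compounds that relieve NS1-induced slow growth of budding yeast raise OD600. Assay medium was yeast nitrogen base with ammonium sulphate and -URA supplement, pH 6.0, with 2% galactose.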
# RE007 growth inh: less growth of the S. pombe RE007 Vpr strain. S. pombe RE007 Vpr strain, BacTiter-Glo ATP luminescence, 24 h; control for the full effect not named in the record. Potency, µM (doses to about 92.2 µM), without a hit: at the highest dose activity change, negative = less growth. hit rate 0.21% among 360,000. AID 651644; active = well fitted falling curve with a large enough effect; inconclusive = small, poorly fitted or top-dose-only effect; inactive = no such curve, though single readings can be large or run the other way;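 further: on the % scale 0 is the no-effect control and ±100 the full control effect; nearly all actives have a fitted effect of over 50% in size; the assay follows cell death caused by Vpr and the record does not say whether a fall means rescue or toxicity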
#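 Fission yeast strain RE007, carrying one chromosomally integrated HIV-1 vpr copy, was seeded at OD 0.01 in PMG+AL medium with 23 nL pinned compound. After 24 h at 30 °C and 99% humidity, viability was read by BacTiter-Glo luminescence.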
# Cruzain Triton: cruzain (T. cruzi) inhibition with detergent | purified cruzain, Z-FR-AMC fluorescence, 0.01% Triton | Potency, µM, for the others: max response, negative = inhibition, most hits filed as inhibitors | hit rate 0.43% among 200,000; active means well fitted curve in the direction sought with a large enough effect; inconclusive means small, poorly fitted or top-dose-only effect, or another doubt; inactive means no such curve, though single readings can be large; an effect the other way counts as inactive or inconclusive;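 further: plate controls were neutral wells for no effect and buffer without enzyme for full effect; nearly all actives have a fitted effect of over 40% in size; top concentration of the series not given in the record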
#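 Cysteine protease activity tested under reducing, mildly acidic conditions (100 mM sodium acetate pH 5.5, 5 mM DTT) plus 0.01% Triton X-100. Cruzain 1.5 nM; substrate Z-FR-AMC 2 uM; 15 min compound preincubation at room temperature.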
# Lassa entry inh: Lassa virus entry inhibition. hit rate 1.2% among 300,000. Lassa virus pseudotype entry inhibition, cell reporter; control for the full effect not named in the record. Potency, µM (top dose mostly 37.9 µM), for inactives: at the top dose activity change, negative = inhibition, usual class: inhibitors. AID 540256; active means well fitted inhibition curve with a large enough effect; inconclusive means small, poorly fitted or top-dose-only effect, or effect the other way; inactive means flat fitted curve, though single readings scatter; tested in HEK293 cells; further: on the % scale 0 is the no-effect control and ±100 the full control effect; nearly all actives have a fitted effect of over 50% in size; luciferase read-out
# An asterisk follows results filed as active; ? = inconclusive; . = not tested or not shown; & = joins results of further samples; [ ] = dose if it differs, or a comment. Unless noted, the call rests on the fitted dose curve; in most records, active means well fitted rising curve with a large enough effect; inconclusive means small, poorly fitted or top-dose-only effect; inactive means no such curve, though single readings can be large or run the other way. Potency means the concentration at half of the fitted maximal effect. Not a hit list; about 4.5% have a hit in one of these screens.
SMILES,Cruzain inh noDet,MARV entry inh,SARS PLP yeast,2A StopGo,NS1 function inh,RE007 growth inh,Cruzain Triton,Lassa entry inh
[O-]/C(=C(\C(=S)NCc1ccccc1)[n+]1ccccc1)c1ccc(Cl)cc1,.,13%[46.1 µM],1%,45%[activator],2%,-23%,.,4%
COc1ccccc1C(=O)O/N=C1/CCCc2c1ccc(OC)c2[N+](=O)[O-],-20%,?,-3%,-16%,-3%,-7%,-0.5%,-10%
Cc1ccc(CNC(=O)C2CCC(=O)N(CCCN3CCOCC3)C2)cc1 (centres undefined),.,-15%,0%,-14%,12%,1%,.,?
CN(C)CCCn1c(=O)n(CCc2ccccc2)c(=O)c2c3c(sc21)CCCCC3,.,.,1%,?,-4%,-6%,.,.
CCCC(=O)NCCc1cc2ccc(OC)cc2[nH]c1=O,-7%,?,-2%,-11%,-4%,-1%,-4.4%,-7%
COC(=O)c1cc([N+](=O)[O-])ccc1N1CCN(Cc2ccccc2)CC1,-12%,18%,-9%,?,0%,-9%,-4.6%,-11%
COCCCn1ccc(O)c(Cc2ccc(F)cc2)c1=O,-8%,3%,0%,-12%,12%,1%,2.7%,-5%
Cc1ccccc1OC(=O)CSc1nnc(-c2cccs2)o1,1%,?,.,-22%,.,.,-0.7%,15%[46.1 µM]
COC(=O)c1cc2c(ccn2-c2ccc(F)cc2)n1CC(=O)C(C)(C)C,.,-26%,-1%,?,4%,-6%,.,-15%
Cc1cc(=O)oc2c(C)c(OCC(=O)N3CC[C@@]4(O)CCCC[C@H]4C3)ccc12,.,.,-1%,-18%,19%,-7%,.,.
Cn1nc(C(F)(F)F)c(-c2ccc(Br)cc2)c1NC(=O)Nc1ccc(F)cc1F,.,?,-7%,-25%,-6%,2%,.,?
O=C(Nc1ccc(Br)cc1)c1cccc(-n2cnnn2)c1,.,-12%,.,-3%,12%,-1%,.,10%
O=C(COc1ccc2c(c1)CCC2)N1CCN(c2ccccc2F)CC1,-5%,5%,-2%,-9%,-8%,-9%,-6.2%,0%
CCc1ccc(CNC(=O)c2cc3c(C)nc4ccccc4c3o2)cc1,?,.,-17%,?,-26%,10%,-6.6%,.
COc1cc(NC(=O)C2CC2C)c(C(=O)O)cc1OC (centres undefined),-8%,-7%[46.1 µM],-1%,12%,8%,11%,-0.9%,-1%
Cc1onc(-c2c(Cl)cccc2Cl)c1COC(=O)c1ccc(Cl)cc1,.,.,-1%,?,3%,0%,.,.
Cc1c(NC(=S)NC(=O)c2cccc(Cl)c2)c(=O)n(-c2ccccc2)n1C,.,.,3%,10%,19%,9%,.,.
N#CCCN(C(=O)Cn1nc(C(=O)O)c2ccccc2c1=O)c1ccccc1,.,14%[46.1 µM],2%,-11%,11%,-1%,.,?
O=C(c1ccc(Cl)cc1[N+](=O)[O-])N1CCc2ccccc2C1,.,-2%[46.1 µM],0%,9%,-7%,9%,.,-1%[46.1 µM]
O=C(Oc1cccc(C(=O)N2CCOCC2)c1)c1ccc(Br)cc1,12%,?,1%,0%,-3%,5%,1.8%,2%
O=C(Cn1c(=O)oc2cc(S(=O)(=O)N3CCCC3)ccc21)Nc1ccc(F)cc1F,1%,-6%[46.1 µM],.,2%,.,.,-3.7%,-8%[46.1 µM]
CCN1CCN(C(C)C(=O)NC2CCCCC2)CC1 (centres undefined),.,.,2%,-23%,11%,-15%,.,.
CCOc1ccc(NC(=O)c2cc(CN3CCCC3)on2)cc1,-7%,.,.,14%,.,.,2.9%,?
CCCN(CCC)c1nc2ccccc2n2c(C)nnc12,?,?,0%,-24%,-30%,-5%,0.4%,6%
CC(=O)c1c(C)[nH]c(C(=O)N2CCN(c3ncccn3)CC2)c1C,-1%,.,3%,-19%,-34%,-1%,-0.2%,.

# (further entries)
SMILES,Cruzain inh noDet,MARV entry inh,SARS PLP yeast,2A StopGo,NS1 function inh,RE007 growth inh,Cruzain Triton,Lassa entry inh
Cc1ccc(-c2nn(-c3ccc(F)cc3)cc2C(=O)NC2CCC(O)CC2)cc1 (centres undefined),.,?,-1%,-12%,.,18%,.,13%
CCCCN(c1ccccc1)c1ncnc(N)c1[N+](=O)[O-],-30%,-14%,8%,-19%,-22%,0%,-0.5%,11%
COc1ccc(Nc2ccc3cc(S(=O)(=O)N4CCCC4)ccc3n2)cc1Cl,25µM*,.,.,-17%,.,.,-3.5%,?
Cc1ccc2nc(=O)c(NNc3ccccc3)cnc2c1,-15%,-21%&-21%,1%,40%[activator],6%,1%&12%,-5.4%,-17%
CN(C)CCN(C(=O)C1CCN(S(=O)(=O)c2cccs2)CC1)c1nc2ccc(F)cc2s1,.,-1%,-2%,22%,.,0%,.,23%[46.1 µM]
CN(c1ccccc1)S(=O)(=O)c1cccc(C(=O)NC2CCCC2)c1,.,-13%,5%,-13%,.,2%,.,-19%
CC(=O)Nc1ccc(SCC(=O)N(C)CC(=O)Nc2ccccc2Cl)cc1,.,16%,1%,-9%,.,-11%,.,?
COC(=O)c1sc(NC(=O)C(C)C)c(C(=O)OC)c1C,10%,?,9%,-21%,-10%,7%,5.3%,0%
O=C(c1ccco1)N1CCN(C(=O)c2cnn(-c3cccc(F)c3)c2C2CCNCC2)CC1,0%,.,2%,0%&-7%,-12%,-3%,-0.7%,22%[46.1 µM]
COc1ccc(S(=O)(=O)NC2(C(F)(F)F)N=C(c3ccccc3)NC2=O)cc1 (centres undefined),-3%,-4%,-2%,-7%,13%,-3%,-0.5%,-1%
CC(C)[C@H](NC(=O)c1ccc(C(C)(C)C)cc1)C(=O)N1CCN(Cc2ccc3c(c2)OCO3)CC1,.,?,-9%,?,.,0%,.,?
FC(F)(F)Oc1ccc2c(c1)NC(c1ccncc1)=NC(c1cccs1)=N2,0%,?,.,-17%,.,.,-12%,-10%[46.1 µM]
CCOCCCNC(=O)C1CCN(c2nc3ccc(C)cc3[nH]2)CC1,-5%,.,.,26%,.,.,-1.5%,7%[46.1 µM]
C/C=C/C(=O)Nc1cccc(C2=NOC3(C2)C[C@@H](C(N)=O)N(C(=O)c2cc([N+](=O)[O-])cc([N+](=O)[O-])c2C)C3)c1 (some centres undefined),.,.,1%,3%,-52%,3%,.,.
O=C1CN(C(=O)c2cccc(Br)c2)C(c2ccccc2)c2cc(Cl)ccc2N1 (centres undefined),-21%,.,.,-14%,.,.,-4.9%,?
O=S(=O)(c1cccc(COc2c(Cl)cccc2Cl)c1)N1CCOCC1,.,?,4%,9%,.,2%,.,-3%
Nc1nc(SCc2ccc(Cl)cc2Cl)n[nH]1,-8%,?,0%,-3%,-3%,0%,4.3%,?
Cc1c(CCC(=O)NCCCCCC(=O)O)c(=O)oc2cc3occ(-c4ccccc4)c3cc12,.,.,0%,-12%,-2%,-4%,.,.
O=C1C(=O)c2ccccc2C(O)=C1c1cccc([N+](=O)[O-])c1,.,5.6µM*,1%,40µM*,-37%,-26%,.,3.5µM*
CCOc1ncccc1C(=O)OCC(=O)c1ccccc1,.,4%[46.1 µM],1%,3%,-5%,-8%,.,10%[46.1 µM]
O=C(Nc1ccc(Oc2ccc3c(c2)C(=O)N(c2ccc(O)cc2)C3=O)cc1)c1cccs1,-10%,?,3%,-16%,-15%,-2%,-1.5%,-2%
CN(C)CCNC(=O)C1(O)c2cc(Br)ccc2NC(=O)N1c1ccc(Cl)cc1 (centres undefined),.,-7%[46.1 µM],2%,-7%,-2%,-11%,.,-11%[46.1 µM]
COC(=O)[C@H](CC(C)C)NC(=O)N1CCC(C)CC1,.,15%,-1%,0%,-2%,-3%,.,?
O=C(COC(=O)c1ncc(Cl)c(Cl)c1Cl)NC(=O)c1ccccc1,.,-8%[46.1 µM],3%,-3%,.,-5%,.,1%
O=C(Nc1cccnc1Cl)c1ccc(S(=O)(=O)N2CCCCCC2)cc1,-5%,-2%,-10%,-28%,-21%,5%,-0.3%,-4%

# Next compounds follow.
SMILES,Cruzain inh noDet,MARV entry inh,SARS PLP yeast,2A StopGo,NS1 function inh,RE007 growth inh,Cruzain Triton,Lassa entry inh
COc1cccc(C2(O)C(=O)Nc3ccccc32)c1 (centres undefined),.,?,-2%,-5%,4%,-1%,.,1%[46.1 µM]
COc1ccc(NC(=O)CN2C(=O)NC3(CCCC3)C2=O)cc1OC,.,3%[46.1 µM],0%,-3%,-6%,-3%,.,15%[46.1 µM]
CC(C)c1c(C(=O)N/N=C/c2ccncc2)nnn1-c1nonc1N,.,.,1%,-29%,-4%,11%,.,.
NC(=O)c1ccc(=O)n(Cc2ccc(Cl)cc2Cl)c1,.,.,1%,8%,-4%,7%,.,.
Cc1ccc(NC(=O)c2cc(NC(=O)c3ccco3)ccc2N2CCOCC2)cc1Cl,-5%,?,1%,-6%,2%,-7%,-3.5%,-3%
O=C1CCC([N+](=O)[O-])C(c2ccccc2C(F)(F)F)N1 (centres undefined),.,.,1%,-10%,0%,4%,.,.
O=C(Nc1nc(-c2cccc(Br)c2)cs1)Oc1ccccc1,?,18%,-49%,.,-51%,-14%,0.9%,?
CCCCOc1ccc(-c2csc(N)n2)cc1[N+](=O)[O-],-8%,?,-99%,9%,-56%,?,-12%,?
CC(=O)Nc1ccc(NC(=O)C(C)OC(=O)CCC(=O)c2ccc(F)cc2)cc1 (centres undefined),1%,4%,4%,-2%,-3%,18%,2.9%,-1%

# Exported as labelled records: part of the list above
mol: COc1ccc(S(=O)(=O)NC2(C(F)(F)F)N=C(c3ccccc3)NC2=O)cc1 (centres undefined)
  Cruzain inh noDet: -3%
  MARV entry inh: -4%
  SARS PLP yeast: -2%
  2A StopGo: -7%
  NS1 function inh: 13%
  RE007 growth inh: -3%
  Cruzain Triton: -0.5%
  Lassa entry inh: -1%
mol: CC(C)[C@H](NC(=O)c1ccc(C(C)(C)C)cc1)C(=O)N1CCN(Cc2ccc3c(c2)OCO3)CC1
  Cruzain inh noDet: .
  MARV entry inh: ?
  SARS PLP yeast: -9%
  2A StopGo: ?
  NS1 function inh: .
  RE007 growth inh: 0%
  Cruzain Triton: .
  Lassa entry inh: ?
